Screening data as filed in PubChem.
RE007 growth inh: less growth of the S. pombe RE007 Vpr strain; S. pombe RE007 Vpr strain, BacTiter-Glo ATP luminescence, 24 h; control for the full effect not named in the record; actives 0.21% (n = 360,000); Potency, µM (series often up to 92.2 µM), for inactives: top-dose activity change, negative = less growth; active = well fitted falling curve with a large enough effect; inconclusive = small, poorly fitted or top-dose-only effect; inactive = no such curve, though single readings can be large or run the other way;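 also: % is scaled to controls: 0 for no effect and ±100 for the full control effect; nearly all actives have a fitted effect of over 50% in size; the assay follows cell death caused by Vpr and the record does not say whether a fall means rescue or toxicity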
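Fission yeast strain RE007, carrying one chromosomally integrated HIV-1 vpr copy, was seeded at OD 0.01 in PMG+AL medium with 23 nL pinned compound. After 24 h at 30 °C and 99% humidity, viability was read by BacTiter-Glo luminescence.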
MARV entry inh: Marburg virus entry inhibition; Potency, µM (series often up to 37.8 µM), without a hit: at the highest dose activity change, negative = inhibition, hits mostly inhibitors; actives 1.8% (n = 300,000); Marburg virus pseudotyped entry inhibition, cell reporter; control for the full effect not named in the record; about a third of the inactives were read at about 46 µM; AID 540276; active = well fitted inhibition curve with a large enough effect; inconclusive = small, poorly fitted or top-dose-only effect, or effect the other way; inactive = flat fitted curve, though single readings scatter; tested in HEK293 cells; about a fifth of its hits are not listed in these tables; also: % is scaled to controls: 0 for no effect and ±100 for the full control effect; luciferase read-out
Cruzain inh Det: cruzain (T. cruzi) inhibition with detergent; AID 1478; Potency, µM, for the others: max response, negative = inhibition, actives largely listed as inhibitors; purified cruzain, Z-FR-AMC fluorescence, 0.01% Triton; actives 0.43% (n = 200,000); active = well fitted curve in the direction sought with a large enough effect; inconclusive = small, poorly fitted or top-dose-only effect, or another doubt; inactive = no such curve, though single readings can be large; an effect the other way counts as inactive or inconclusive;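 also: plate controls were neutral wells for no effect and buffer without enzyme for full effect; nearly all actives have a fitted effect of over 40% in size; top concentration of the series not given in the record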
Target sequence (P25779 123-467 limits assumed): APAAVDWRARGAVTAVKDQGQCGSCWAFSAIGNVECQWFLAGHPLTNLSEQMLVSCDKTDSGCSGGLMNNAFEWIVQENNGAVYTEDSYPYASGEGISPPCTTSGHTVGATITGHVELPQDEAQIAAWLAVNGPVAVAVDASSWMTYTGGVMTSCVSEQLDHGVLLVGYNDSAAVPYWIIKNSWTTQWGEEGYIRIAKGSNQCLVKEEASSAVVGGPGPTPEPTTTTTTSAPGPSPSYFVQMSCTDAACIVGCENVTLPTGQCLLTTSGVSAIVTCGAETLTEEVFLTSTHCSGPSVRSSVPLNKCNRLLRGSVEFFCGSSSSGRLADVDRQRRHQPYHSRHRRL
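15 min RT preincubation of 1.5 nM cruzain with compound, then 2 uM Z-FR-AMC added; kinetic AMC fluorescence, 60 s delta. Triton X-100 0.01%, pH 5.5.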
SARS PLP yeast: blocks SARS-CoV papain-like protease in a yeast assay; Potency, µM (titrated, usually from 32.9 µM), without a hit: top-dose activity, positive = growth rescue; S. cerevisiae expressing SARS-CoV PLpro, growth rescue; control for the full effect not named in the record; actives 0.19% (n = 330,000); AID 485353; also: 0% is about no effect; nearly all actives have a fitted effect of over 55% in size; growth read by luminescence after 48 h
NS1 function inh: influenza NS1 inhibition | S. cerevisiae slowed by influenza A NS1, growth recovery by OD600 | Potency, µM (titrated, usually from 46.1 µM), for the others: at the top dose activity, positive = more growth | actives 0.4% (n = 270,000); also: actives are rising curves; nearly all actives have a fitted effect of over 50% in size
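A cell-based growth assay was used: compounds that relieve NS1-induced slow growth of budding yeast raise OD600. Assay medium was yeast nitrogen base with ammonium sulphate and -URA supplement, pH 6.0, with 2% galactose.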
2A StopGo: lowers the luciferase signal of an FMDV 2A StopGo reporter | human cells with a luciferase reporter of 2A StopGo recoding; control for the full effect not named in the record | Potency, µM (highest dose often 57.9 µM), for inactives: at the top dose signal change, negative = less light | actives 1.2% (n = 410,000); active = well fitted falling curve with a large enough effect; inconclusive = small, poorly fitted or top-dose-only effect; inactive = no such curve, though single readings can be large or run the other way; tested in HEK293T cells; also: % is scaled to controls: 0 for no effect and ±100 for the full control effect; nearly all actives have a fitted effect of over 45% in size; luciferase light after 4 h
Cruzain inh noDet: blocks cruzain activity in detergent-free assay | P25779 | actives 2.3% (n = 200,000) | purified cruzain, Z-FR-AMC fluorescence, no detergent | AID 1476 | Potency, µM, without a hit: max response, negative = inhibition, most hits filed as inhibitors; active = well fitted curve in the direction sought with a large enough effect; inconclusive = small, poorly fitted or top-dose-only effect, or another doubt; inactive = no such curve, though single readings can be large; an effect the other way counts as inactive or inconclusive;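 also: plate controls were enzyme without inhibitor for no effect and buffer without enzyme for full effect; nearly all actives have a fitted effect of over 40% in size; top concentration of the series not given in the record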
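Purified cruzain at 1.5 nM, pre-incubated 15 min with compound at room temperature in 100 mM sodium acetate pH 5.5, 5 mM DTT, 0.00005% Triton X-100. Reaction started with 2 uM Z-FR-AMC; AMC fluorescence increase over 60 s gives rate.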
LASV entry inh: Lassa virus entry inhibition. Lassa virus pseudotype entry inhibition, cell reporter; control for the full effect not named in the record. AID 540256. Potency, µM (top dose mostly 37.9 µM), inactives show top-dose activity change, negative = inhibition, most hits filed as inhibitors. actives 1.2% (n = 300,000); active means well fitted inhibition curve with a large enough effect; inconclusive means small, poorly fitted or top-dose-only effect, or effect the other way; inactive means flat fitted curve, though single readings scatter; tested in HEK293 cells; also: % is scaled to controls: 0 for no effect and ±100 for the full control effect; nearly all actives have a fitted effect of over 50% in size; luciferase read-out
An asterisk follows results filed as active; ? = inconclusive; . = not tested or not shown; & = joins results of further samples; [ ] = another dose, or the depositor's remark. Unless noted, calls follow the shape of the dose curve; as a rule, active means well fitted rising curve with a large enough effect; inconclusive means small, poorly fitted or top-dose-only effect; inactive means no such curve, though single readings can be large or run the other way. Potency is read from the fitted curve at half-maximal effect.

Molecule	RE007 growth inh	MARV entry inh	Cruzain inh Det	SARS PLP yeast	NS1 function inh	2A StopGo	Cruzain inh noDet	LASV entry inh
Cc1nc2ccccc2c(=O)n1-c1ccc(Br)cn1	25%	21%[46.1 µM]	.	0%	-2%	7%	.	15%
COc1cc(C2c3c(oc4ccccc4c3=O)C(=O)N2c2ccccn2)cc(OC)c1OC (stereo not given)	.	-11%[46.1 µM]	1.0%	.	.	-17%	5%	15%[46.1 µM]
COC(=O)c1ccccc1NC(=O)c1cccnc1	-5%	.	.	-7%	-19%	-16%	.	.
CCCCNC(=O)COC(=O)c1cc2c(C)nn(-c3ccccc3)c2s1	-2%	-12%	3.3%	-11%	2%	-16%	6%	-2%
O=Cc1ccc(N2CCCC2)o1	3%	14%[46.1 µM]	.	1%	.	1%	.	-11%
COc1ccc(NC(c2ccc(F)cc2)c2nnc(-c3ccccc3Cl)o2)cc1Cl (stereo not given)	.	-18%[46.1 µM]	-4.1%	.	.	-8%	?	-25%[46.1 µM]
Cc1ccc(S(=O)(=O)Oc2ccc(/C=C3\N=C(c4cccc(C)c4)OC3=O)cc2)cc1	1%	20%	-2.8%	-5%	1%	-28%	119%	11%
O=C(c1cc(-c2cccs2)on1)N1CCN(C(c2ccccc2)c2ccccc2)CC1	12%	?	-8.0%	3%	2%	-21%	?	?
Cn1c(=O)c2sccc2n2c(CCCC(=O)Nc3ccc(F)cc3F)nnc12	-3%	12%&-21%[46.1 µM]	-0.7%	1%	11%	-10%&-16%	-6%	?
Cc1nc(C)c(C(=O)N/N=C/c2cn(C)c3ccccc23)s1	4%	?	-4.0%	-5%	-4%	?	-2%	2%
CCNc1nc2c(c(=O)n(Cc3ccccc3)c(=O)n2C)n1Cc1ccccc1	-1%	-1%	-4.4%	3%	-11%	?	5%	?
COc1ccc(-c2csc(CCn3nc(C)cc3C)n2)cc1OC	14%	-7%[46.1 µM]	.	-7%	3%	-16%	.	-3%[46.1 µM]
Cc1ccc(S(=O)(=O)N(C)C)cc1NC(=O)COC(=O)/C=C/c1ccc2ccccc2n1	-21%	-11%	.	-21%	.	26%	.	24%
Cc1ccc(S(=O)(=O)N(CC(=O)NN=C2CCN(C)CC2)c2ccc(C(C)C)cc2)cc1	-5%	-15%[46.1 µM]	.	0%	.	2%	.	-11%
Cc1c(NC(=O)Nc2ccccc2Cl)c(=O)n(-c2ccccc2)n1C	-5%	.	.	2%	-3%	-11%	.	.
COc1ccccc1N(CC(=O)Nc1ccc(S(=O)(=O)N2CCCCC2)cc1)S(C)(=O)=O	15%	-4%	-4.1%	26%	-4%	-1%	?	-14%
Cc1noc(C)c1CSCC(=O)Nc1ccccc1N1CCCC1	-8%	-18%[46.1 µM]	.	.	.	0%	.	-12%
Cc1ccc(OCC2Cn3c(nc4c3c(=O)n(C)c(=O)n4C)O2)cc1 (stereo not given)	-7%	-11%	1.7%	-2%	-6%	0%	0%	17%
Cc1ccc(NC(=O)COC(=O)c2cc(Cl)ccc2[N+](=O)[O-])cc1	77%	?	-15%	-41%	-37%	-3%	-14%	2%
CCOC(=O)N/N=C1\CCS(=O)(=O)c2ccc(Cl)cc21	9%	.	.	0%	3%	-12%	.	.
Cc1occc1-c1nnc(SCC(=O)c2c(N)n(Cc3ccccc3)c(=O)n(C)c2=O)n1C	3%[3.69 µM]	1%&28%	3.6%	12%	10µM*	-2%	9%	10%
Cc1ccc(S(=O)(=O)N(C)CC(=O)NNC(=O)CCC(=O)c2ccc(F)cc2)cc1	8%	18%	.	-9%	.	-2%	.	2%
Cc1ccc2c(c1)c(=O)c(C(=O)c1ccc3c(c1)OCO3)cn2Cc1ccc(Cl)cc1	.	?	-1.2%	.	.	0%	?	-17%[46.1 µM]
Cc1ccc(N2C(=O)C(CC(=O)Nc3cccc(F)c3)N(C3CC3)C2=O)cc1 (stereo not given)	6%	.	.	0%	-9%	11%	.	.
O=C(NC1CCSc2ccccc21)c1ccccc1Br (stereo not given)	-16%	.	.	-6%	-28%	-8%	.	.

Molecule	RE007 growth inh	MARV entry inh	Cruzain inh Det	SARS PLP yeast	NS1 function inh	2A StopGo	Cruzain inh noDet	LASV entry inh
CNC(=O)c1snnc1-c1ccccc1	9%	4%	2.8%	7%	9%	-22%	5%	6%
CC1(C)CC(=O)C2=C(C1)OC(c1ccc(O)cc1)C(C#N)=C2N (stereo not given)	-14%	?	-0.6%	14%	4%	-1%	6%	?
O=C(O)CC1S/C(=N/N=C/c2ccc([N+](=O)[O-])cc2)N(c2ccc(O)cc2)C1=O (stereo not given)	7%	-8%[46.1 µM]	.	0%	6%	-1%	.	-23%
O=C(/C=C/c1ccc(F)cc1)Nc1ccc2[nH]c(=O)[nH]c2c1	14%	-14%[46.1 µM]	.	-1%	1%	-2%	.	1%[46.1 µM]
O=C(Cn1c(=O)oc2ccccc21)N(Cc1ccccc1)C1CCS(=O)(=O)C1 (stereo not given)	-8%	-9%	-0.1%	8%	-20%	-15%	-11%	4%
O=c1cnnc(N/N=C/C2CC=CCC2)[nH]1 (stereo not given)	3%	10%[46.1 µM]	.	-2%	.	17%	.	-3%[46.1 µM]
CN(C)S(=O)(=O)c1ccc(C(=O)NC(=O)CSc2nnnn2C)cc1	-23%	10%	.	15%	.	-10%	.	-7%
NC(=O)N/N=C/c1ccc2cccc(OCc3ccccc3)c2n1	-25%	-8%[46.1 µM]	.	1%	-10%	-20%	.	-25%
CC(=O)Nc1ccc(S(=O)(=O)NCc2ccc3[nH]c(C)cc3c2)cc1	-2%	.	-4.4%	0%	30%	-21%	-2%	.
Cc1ccc(-n2ncc3c(NCC4CCCO4)ncnc32)c(C)c1 (stereo not given)	3%	3%	-0.8%	-2%	0%	-27%	4%	-1%
CC(=O)c1cc2c(cc1NC(=O)c1ccc(C)cc1)OCCO2	-10%	.	.	-7%	-15%	25%	.	.
O=C(N/C(=C/C=C/c1ccccc1)C(=O)N1CCOCC1)c1ccccc1Br	18%	25%[46.1 µM]	.	5%	.	4%	.	-6%
Cc1ccc(C)c(OCC(=O)N2CCN(C(=O)c3ccco3)CC2)c1	-10%	-2%	-3.4%	9%	-5%	-5%	9%	0%
C[C@@H]1NC(=O)[C@H](CCC(N)=O)NC(=O)c2cc([N+](=O)[O-])cc(I)c2NCC[C@@H](C(N)=O)NC1=O	-3%	-10%	-6.7%	1%	-6%	-7%	3%	-10%
NC(=S)N/N=C/c1cccc(O)c1O	-5%	?	.	1%	4%	24%	.	?
O=C(CCC(=O)c1cccs1)Nc1nc2ccccc2s1	6%	12%[46.1 µM]	.	.	.	18%	.	11%
COc1cccc(N2CC(C(=O)Nc3nnc(SCCC4OCCO4)s3)CC2=O)c1 (stereo not given)	-10%	-3%	.	2%	22%	-14%	.	-2%
CC(CCc1ccccc1)OS(N)(=O)=O (stereo not given)	-7%	.	.	8%	0%	-6%	.	.
COc1cc2c(cc1NC(=O)CSc1nnc(COc3ccc(Cl)cc3)n1C)oc1ccccc12	6%	?	-3.1%	-10%	13%	-10%	?	-5%
Cc1cccc(C)c1NC(=O)CCCn1nc(C)c2c(C)n(-c3ccccc3)nc2c1=O	7%	.	.	2%	8%	-18%	.	.
CCn1nc(C)cc1Nc1ccccc1	-11%[3.69 µM]	1%	2.1%	-3%	0%	-11%	?	7%
COc1ccc(C2/C(=C(/O)c3ccccc3)C(=O)C(=O)N2CC(C)O)c(OC)c1 (stereo not given)	15%	5%	0.2%	2%	3%	16%	1%	-4%
Cc1ccc(CNC(=O)CN2C(=O)CSc3ccc(S(=O)(=O)N4CCCCC4)cc32)cc1	10%	.	.	1%	8%	-20%	.	.
CC(C)NC(=O)CN1CCC(c2ccccc2)C(O)C1 (stereo not given)	1%	2%	.	0%	0%	-19%	.	0%
O=S(=O)(NCc1ccccc1)c1cccc2nsnc12	-17%	16%[46.1 µM]	.	-1%	0%	13%	.	0%[46.1 µM]

Molecule	RE007 growth inh	MARV entry inh	Cruzain inh Det	SARS PLP yeast	NS1 function inh	2A StopGo	Cruzain inh noDet	LASV entry inh
Cc1ccc(Cl)cc1N1CCN(C(=O)Cc2c(C(=O)O)[nH]c3ccccc23)CC1	10%	9%	-19%	-3%	?	3%	?	-1%
O=C(NNC(=O)c1ccccc1F)c1ccc(S(=O)(=O)N2CCCC2)cc1	11%	8%	.	0%	.	-9%	.	9%
COc1cc(CN/C(C)=C(\C#N)C(N)=O)cc(OC)c1OC	10%	-20%	1.3%	1%	1%	.	0%	11%
O=C(Nc1ccc(N2CCOCC2)cc1N1CCOCC1)c1ncoc1-c1cccc(F)c1	-3%	-11%[46.1 µM]	.	2%	5%	-18%	.	.
CC(=O)Nc1ccc(NC(=O)COC(=O)CCc2nc3ccccc3s2)cc1	-9%	9%[46.1 µM]	.	0%	.	0%	.	-1%[46.1 µM]
CCOc1ncc(S(=O)(=O)N2CCN(CC)CC2)cc1C(=O)O	3%	6%[46.1 µM]	.	?	2%	-6%	.	29%[46.1 µM]
Fc1ccc(N2CCN(c3ncnc4onc(-c5ccc(Cl)cc5)c34)CC2)cc1	.	-14%[46.1 µM]	-7.8%	.	.	?	4%	?
Cc1cc(C)c(Cn2c(CCNC(=O)c3ccco3)nc3ccccc32)c(C)c1	.	?	?	.	.	-29%	5%	-15%[46.1 µM]
COCCCn1c(=O)c2sccc2n2c(CCCC(=O)Nc3ccc(F)c(F)c3)nnc12	.	-11%[46.1 µM]	-0.6%	.	.	-17%	4%	6%[46.1 µM]
O=C(NCc1ccc(N2CCCC2=O)cc1)c1cc(COc2c(F)cccc2F)on1	3%	-10%	.	-1%	13%	19%	.	-29%
Cc1ccc(S(=O)(=O)NC(=NCC(=O)O)c2ccc(F)cc2)cc1	5%	6%	5.2%	2%	5%	12%	-4%	4%
Cc1[nH]c2ccccc2c(=O)c1CN(C)Cc1ccccc1	-2%	30%[46.1 µM]	10%	3%	-1%	58%[activator]	4%	-4%
CC(=O)SCC[N+](C)(C)C	9%[18.4 µM]	?	3.8%	-1%	0%&3%	-16%	3%	-18%
CC(=O)C1C(c2cccc(F)c2)c2c(n[nH]c2C)CC1(C)O (stereo not given)	-2%	.	.	-1%	-1%	-15%	.	.
